Lassa entry – qHTS for Inhibitors of binding or entry into cells for Lassa Virus; Potency, µM (titrated, usually from 49.2 µM), inactives show at the top dose activity change, negative = inhibition, actives largely listed as inhibitors; Lassa virus pseudotyped entry inhibition, cell-based qHTS; control for the full effect not named in the record; many of its hits are not listed in these tables; actives 4.1% (n = 18,000); active = well fitted inhibition curve with a large enough effect; inconclusive = small, poorly fitted or top-dose-only effect; inactive = no such curve, though single readings can be large or run the other way; tested in HEK293 cells; also: luciferase read-out
Marburg entry – qHTS for Inhibitors of binding or entry into cells for Marburg Virus; Marburg virus pseudotype entry/binding inhibition, cell-based; control for the full effect not named in the record; many of its hits are not listed in these tables; Potency, µM (highest dose often 49.2 µM), for inactives: top-dose activity change, negative = inhibition, usual class: inhibitors; actives 6.5% (n = 18,000); active means well fitted inhibition curve with a large enough effect; inconclusive means small, poorly fitted or top-dose-only effect; inactive means no such curve, though single readings can be large or run the other way; tested in HEK293 cells; also: luciferase read-out
An asterisk follows results filed as active; ? = inconclusive; nt = not tested or not shown; & = joins results of further samples; [ ] = dose if it differs, or a comment. % is scaled to controls: 0 for no effect and ±100 for the full control effect; potency is read from the fitted curve at half-maximal effect. These rows are one share of the data; count on the stated rates, not on these rows.

The line under a structure holds: Lassa entry	Marburg entry
> COc1cc(C)c2c(c1C=O)Oc1c(c(C)c(O)c3c1C(O)OC3=O)OC2=O (stereo not given)
    -5%&2%	-17%&-10%
> COCC(=O)Nc1cc(C(=O)N2CCCC(c3ccccc3)CC2)c2c(c1)nc(-c1ccncc1)n2C (stereo not given)
    -12%	11%
> COc1ccc(N2C(=O)N3[C@H](c4ccccc4)[C@@H](C)C[C@H]4c5ccccc5C[C@]43C2=O)cc1
    4%[8.59 µM]	2%[8.59 µM]
> CC1(OC(=O)C2CCCC2)C(=O)C=C2C=C(c3ccsc3)N(C3CCCC3)C=C2C1=O (stereo not given)
    -26%[8.59 µM]	8%[8.59 µM]
> CC1=C[C@@H](COCc2ccccc2)O[C@@]2(C1)C(=O)Nc1cccc(Br)c12
    -12%[8.59 µM]	9%&5%[8.59 µM]
> CC1(C)CC2C1CCC1(C)OC1CCC2(C)O (stereo not given)
    -3%	-6%
> COC(=O)[C@@H]1CCCN1Cc1ccc2c(c1)CN(Cc1ccccc1)CCO2
    -10%	-8%
> C[C@H](ON=C1[C@H]2CCn3c(=O)n(-c4ccccc4)c(=O)n3[C@@H]2[C@H](O)[C@@H]2O[C@H]12)c1cn([C@H](CO)Cc2ccccc2)nn1
    21%[8.59 µM]	7%[8.59 µM]
> CCOCC
    -13%	15%
> CNC(=O)c1cc2c(cn1)[nH]c1ccccc12
    -5%&4%	6%&7%

Remaining list, next part.
The line under a structure holds: Lassa entry	Marburg entry
> CC12C=C(C=Cc3ccc(F)cc3)C(C)(C1)C(c1ccc(F)cc1)CC2=O (stereo not given)
    nt	9%[8.59 µM]
> Cc1oc(-c2ccccc2NC(=O)c2cccnc2)nc1CNC(=O)C1CCCCCN1C (stereo not given)
    -6%	?
> CC(C)CON=C1C[C@@H](O)[C@@H](O)[C@@H]2[C@H]3C(=O)N(Cc4ccc5c(c4)OCO5)C(=O)[C@@H]3CC[C@@H]12
    8%[8.59 µM]	-30%[8.59 µM]
> CCOP(=S)(OCC)Oc1cc(C)nc(C(C)C)n1
    -17%	?
> CCC1CN(CCNC(=O)c2cccc(N3CCCC3=O)c2)Cc2cc(OC)ccc2O1 (stereo not given)
    ?	-17%
> NC(=O)OCCCc1ccccc1
    -1%	-7%
> CCCCC(=O)OCC(=O)[C@H]1[C@H](C)C[C@H]2[C@@H]3C[C@H](F)C4=CC(=O)C=C[C@]4(C)[C@@]3(F)[C@@H](O)C[C@@]21C
    3%	-9%
> CCCCC/C=C\C/C=C\C/C=C\C/C=C\CCCC(=O)C(F)(F)F
    ?	?
> COc1cc2nc(N(C)C)c(CNCCc3c[nH]c4ccccc34)cc2c(OC)c1OC
    -3%	-12%
> COc1ccc(-n2c(CCNC(=O)c3ccccc3C(F)(F)F)nnc2SC)cc1
    -2%	8%

Other results follow.
The line under a structure holds: Lassa entry	Marburg entry
> COc1ccc(OC)c(CN2C[C@H](Sc3ccc(F)cc3)C[C@H]2C(=O)N(C)C)c1
    -2%	-7%
> CCCCc1cc2c(cn1)=C(OC(=O)C1CCCC1)C(C)(OC(=O)CC)C(=O)C=2 (stereo not given)
    -5%[8.59 µM]	?
> COC(=O)[C@@H]1CC2=CC(=O)CC[C@]2(C)[C@@]23O[C@@H]2C[C@@]2(C)[C@@H](CC[C@@]24CCC(=O)O4)[C@H]13
    -6%	-3%
> Cc1noc(C)c1-c1nc(Nc2ccncc2)c2ccccc2n1
    20%	?
> C=C1CC23C[C@H]4[C@@H]5[C@@]6(C)C[C@H](OC(=O)c7ccccc7)[C@@H](OC(C)=O)[C@]57[C@@H]2[C@@H](OC(C)=O)[C@H]1[C@@H](O)[C@H]3[C@H]7N4C6
    -12%[17.8 µM]	-11%[17.8 µM]
> O=S1(=O)C[C@H](N2CCCC2)[C@@H](COCc2ccccc2)N1
    15%	22%
> O=C(Nc1ccc(S(=O)(=O)N2CCOCC2)cc1)c1cc(Cl)ccc1NS(=O)(=O)c1ccc(Cl)s1
    -14%	13%
> C[C@H]1CN(c2ccc(Br)cc2)C(=O)[C@H]1CC(=O)Nc1ccc(Br)cc1
    14%	?
> C=C(C)C(O)C=Cc1ccc(C(F)(F)F)cc1 (stereo not given)
    47%[activator][8.59 µM]	?
> COCCN1C(=O)CC[C@@]23C1=NC(C(=O)OC)=C(C(=O)OC)[C@@H]2N(Cc1ccccc1)c1ccccc13
    -7%[8.59 µM]	-9%[8.59 µM]

(more compounds)
The line under a structure holds: Lassa entry	Marburg entry
> O=C(c1ccc([N+](=O)[O-])cc1)N1[C@H](COCc2ccccc2)C=CS1(=O)=O
    -20%	-20%
> OC[C@H]1O[C@@H](n2cnc3c(NC4CCCCC4)ncnc32)[C@H](O)[C@@H]1O
    -6%	12%
> CC(C)CCCC(C)NC(C)C (stereo not given)
    -4%	11%
> O=c1c(-c2ccc(O)cc2)coc2cc(O[C@@H]3O[C@H](CO)[C@H](O)[C@H](O)[C@H]3O)ccc12
    21%	29%
> CCCCCC[C@@H](O)C/C=C\CCCCCCCC(=O)O
    -5%&-17%&-16%&-17%	20%&9%&-2%&-19%
> COC(=O)CC=C[C@@H](C)[C@H](NC(=O)OCC(Cl)(Cl)Cl)c1ccccc1
    -16%[8.59 µM]	0%[8.59 µM]
> NCCCCCc1cnc[nH]1
    -9%	1%
> Cc1ccc(-c2ccc(C(=O)Nc3ccccc3)o2)c2ccccc12
    4%	?
> COc1ccc2[nH]cc(CCNc3nc(-c4ccccc4CN(C)C)nc4ccccc34)c2c1
    ?	?
> COC(=O)CC=C[C@@H](C)[C@H](NC(=O)OCC(Cl)(Cl)Cl)c1ccc2ccccc2c1
    -12%[8.59 µM]	-18%[8.59 µM]

Looked up above.
Entry of OC[C@H]1O[C@@H](n2cnc3c(NC4CCCCC4)ncnc32)[C@H](O)[C@@H]1O in Marburg entry: 12%
Entry of CCCCCC[C@@H](O)C/C=C\CCCCCCCC(=O)O in Marburg entry: 20%&9%&-2%&-19%

(listing goes on)
The line under a structure holds: Lassa entry	Marburg entry
> CC(C)CC(N)C(=O)NC(C)C(=O)O (stereo not given)
    -2%	12%
> Cc1cccc(CNc2ncncc2-c2cccc(NS(C)(=O)=O)c2)c1
    -6%	4%
> COC(=O)c1cccc(C(=O)N2CCc3c(cnc(C)c3CNC(=O)/C=C/c3cccs3)C2)c1
    11%	5%
> CC(N)(COP(=O)(O)O)C(=O)O (stereo not given)
    -5%	-1%
> Cc1c(C(=O)N2CCN(C(C)C)CC2)sc2ncnc(NCc3ccco3)c12
    -12%	-5%
> O=C(O)[C@@H]1CSC(c2cccnc2)N1 (stereo not given in full)
    3%	-5%
> OCc1cc2c(cn1)[nH]c1ccccc12
    -2%	3%
> COC(=O)N[C@@H](CCc1ccccc1)/C(C(=O)OC)=C(\C)NCc1ccccc1
    5%	4%
> CN(C)CCC=C1c2ccccc2C(C)(C)c2ccccc21
    18µM*	4.5µM*
> CC(=O)CC(c1ccccc1)c1c(O)c2ccc(O)cc2oc1=O (stereo not given)
    -4%	9%

(listing goes on)
The line under a structure holds: Lassa entry	Marburg entry
> CCC1C(C)=NN=C(c2ccc(OC)c(OC)c2)c2cc(OC)c(OC)cc21 (stereo not given)
    5%&-15%	-15%&18%
> COc1cc(C2CC(=O)Oc3ccc(O)cc32)cc(OC)c1OC (stereo not given)
    -18%	-12%
> O=C(C=Cc1ccccc1)N1CCC[C@H]1CO
    3%[8.59 µM]	43%[activator][8.59 µM]
> O=c1c2ccccc2oc2ccccc12
    37%[activator]	41%[activator]
> C[C@]12C[C@H](O)CC(CO)(CO)C1[C@H](O)C[C@@]13CC4[C@@H](CC12)[C@@]4(C)C3 (stereo not given in full)
    -8%	-5%
> Oc1ccccc1C=NCc1ccccc1
    -14%	-19%
> CC(CCN1CCc2nc(-c3ccccc3)c(-c3ccccc3)cc2C1)=NO[C@H](C)CN1CCCCc2nc(C)c(C)cc21
    7%[8.59 µM]	25%[8.59 µM]
> COc1ccco1
    -9%	13%
> O=C(O)C1(O)CC(O)C(O)C(O)C1 (stereo not given)
    -11%	12%
> CCCCOC(=O)c1ccccc1C(=O)OCCCC
    -15%	0%

Continuation.
The line under a structure holds: Lassa entry	Marburg entry
> CC(=O)N1CCC[C@H]1C(=O)NCC1Cc2cc(F)cc(-c3ccc(F)c(C)c3)c2O1 (stereo not given in full)
    -15%	-7%
> C[C@@H]1COc2cc(F)ccc2S(=O)(=O)N1
    8%	28%
> NCC[C@H](O)C(=O)N[C@H]1C[C@@H](N)[C@@H](O[C@H]2O[C@@H](CN)[C@@H](O)[C@@H](O)[C@@H]2O)[C@@H](O)[C@@H]1O[C@H]1O[C@@H](CO)[C@@H](O)[C@@H](N)[C@@H]1O
    6%[17.8 µM]	12%[17.8 µM]
> CC(C)CC1C(=O)N(Cc2cn(CC3CCCCC3)nn2)CCS(=O)(=O)N1Cc1ccc(-c2cccc(CO)c2)cc1 (stereo not given)
    nt	?
> C=C(C)C(=O)C=CCCCC=CC(=O)OCC
    7%[8.59 µM]	7%[8.59 µM]
> CCCCc1ccc(C(=O)O)nc1
    -12%	6%
> Cc1cccc(C(=O)NCC2Cc3cc(F)cc(-c4cnccn4)c3O2)n1 (stereo not given)
    -7%	4%
> Cc1c(C(=O)NC2CCCCCC2)sc2ncnc(NCC3CCCO3)c12 (stereo not given)
    32%[activator]	40%[activator]
> COc1cc2oc(=O)cc(-c3cccc(-c4cccc(C)c4)c3)c2c(OC)c1OC
    -3%	-7%
> COC(=O)[C@@]12Cc3ccccc3[C@H]1C[C@H](C)[C@@H](C)N2C(=O)C(F)(F)F
    -3%[8.59 µM]	3%[8.59 µM]

Other entries follow:
The line under a structure holds: Lassa entry	Marburg entry
> CCOC(=O)C1CSCCS(=O)(=O)N1Cc1ccc(Br)cc1 (stereo not given)
    14%	20%
> Nc1nc2c(ncn2CCC(CO)CO)c(=O)[nH]1
    5%	0%
> Clc1cnc(Oc2ccc(Oc3ncc(Cl)cc3Cl)cc2)c(Cl)c1
    -7%	13%
> CN(CCO)C(=O)c1cn(C2CCN(Cc3cccc(C(F)(F)F)c3)CC2)nn1
    4%	-18%
> CCCCCCCCCCCCCCCC(=O)OC[C@@H](O)[C@H]1OC[C@H](O)[C@H]1O
    4%	-9%
> COc1ccc(CN2CCOc3c(cc(-c4ncc(C(F)(F)F)cc4Cl)cc3OCC3CCCO3)C2)c(O)c1 (stereo not given)
    ?	-27%
> C=CCCN1C=C(C(=O)OCC)C(c2ccccc2)NC1=O (stereo not given)
    34%[activator][8.59 µM]	?
> C[C@@H]1[C@@H](c2ccccc2)Oc2c(Cl)cccc2S(=O)(=O)N1Cc1ccc(F)cc1
    7%	?
> c1ccc(C2CN3CCSC3=N2)cc1 (stereo not given)
    -6%	-1%
> O=C(NCCc1nnc2n1CCN(Cc1ccc(F)c(F)c1)CC2)c1ccoc1
    -20%	-16%

Next section
The line under a structure holds: Lassa entry	Marburg entry
> COc1cc2c(cc1O)[C@H]1Cc3ccc(OC)c(O)c3CN1CC2
    -20%[17.8 µM]	?
> CCCCCCCc1cc2ccccc2c2c(C(=O)OC)c(C(=O)OC)c(C(=O)OC)n12
    nt	18%[8.59 µM]
> Cc1ccc(S(=O)(=O)N2CCC(=O)N([C@H](COCc3cccc(C(F)(F)F)c3)Cc3ccccc3)CC2)cc1
    ?	11µM*
> COc1cccc([C@@H]2Oc3ccc(Br)cc3C(=O)[C@@H]2O)c1
    34%[activator][8.59 µM]	31%[activator][8.59 µM]
> CN(C)c1ccc(-c2nc(NCc3cccnc3)c3ccccc3n2)cc1
    68%[activator]	109%[activator]
> Cc1c(C(=O)NCC2(N3CCOCC3)CCCCCC2)cnn1-c1nccc(-c2ccccc2F)n1
    -12%	11µM*
> COc1ccc(N2C(=O)[C@@H]3C[C@H]2CN3Cc2cccn2-c2ccccn2)cc1Cl
    -14%	-1%
> COC(=O)N[C@@H](/C=C/c1ccccc1)/C(C(=O)OC)=C(\C)NCc1ccccc1
    1%	2%
> O=C(CCCN1CCC(n2c(=O)[nH]c3ccccc32)CC1)c1ccc(F)cc1
    -18%[17.8 µM]	9%[17.8 µM]
> COc1ccc(CN2CCOc3c(O)cc(-c4cc(C)c5ccc(F)cc5n4)cc3C2)c(O)c1
    ?	?

(next part)
The line under a structure holds: Lassa entry	Marburg entry
> CCOC(=O)C(C)=NNC(C)=O
    -4%[8.59 µM]	-17%[8.59 µM]
> O=c1cc(-c2cccc(F)c2)[nH]c2ccc(Cl)cc12
    -39%	?
> NC(=O)c1sc(-n2cnc3ccc(C(F)(F)F)cc32)cc1OCc1ccccc1Br
    nt	?
> CC1(C)CCC2(C(=O)O)CC[C@]3(C)C(=CCC4[C@]5(C)CCC(O)C(C)(C)C5C(O)C[C@]43C)C2C1 (stereo not given in full)
    -28%	-11%
> O=C1/C(=C\c2ccccc2)C[C@@]2(O)[C@H]3Cc4ccc(O)c5c4[C@@]2(CCN3CC2CC2)[C@@H]1O5
    3.5µM*	11µM*
> O=c1cc(-c2ccccc2O)oc2cc(O)cc(O)c12
    -22%	24%
> CC1(OC(=O)C2CCCC2)C(=O)C=C2C=C(c3ccsc3)N(C3CCCCC3)C=C2C1=O (stereo not given)
    -25%[8.59 µM]	-15%[8.59 µM]
> Nc1ccc(-c2ccc(N)c(N)c2)cc1N
    5%	10%
> NCCc1ccc(O)cc1
    ?	12%&-14%&10%
> CN(C)CCNC(=O)Nc1ccc(N(C)c2ccnc(Nc3ccc(CS(C)(=O)=O)cc3)n2)cc1
    60%	-45%
> CCOc1ccc(C(=O)c2ccc(OC)c(O)c2O)cc1
    ?	-16%
